Autofluor counter: compound fluorescence in toxin protease inhibitor counterscreen; 360,000 compounds, 3.1% hits; compound autofluorescence counterscreen, microsphere flow cytometry; stronger effect = higher value; fluorescence intensity (no concentration beside the values);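 active = at least 3 SD above the mean of all compounds, about 16000 in these data; inconclusive = too few beads counted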;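 note: 100 nL of 1 mM stock went into each well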
Mtb hypoxia rep: reduces hypoxia-regulated biosensor signal in M. tuberculosis. M. tuberculosis hypoxia-regulated fluorescent reporter, fluorescence. AID 1159583. fluorescence inhibition, % (concentration not given with the values). 300,000 compounds, 0.1% hits;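 active = 35 to 45% if threefold the growth effect, above 45% if 1.5-fold the growth effect; inactive = the rest, general growth blockers included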;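 note: wells of about 50 µL received 100 nL stock; 0% = vehicle wells and 100% = reference inhibitor wells; whole bacteria with a GFP reporter of the hypoxia response; strong numbers were not always called active; many hits fall short of the cut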
Sa ugtP lethal: compounds lethal to S. aureus RN4220 ugtP deletion mutant. OD600 growth, 16 h; some inactives read as strong as hits. growth inhibition, % (concentration not given with the values). 330,000 compounds, 0.54% hits. AID 1259309;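 active = z-score under -3 and OD600 up to 0.15 on both plates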;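 note: plate controls were untreated wells for no effect and antibiotic for full effect; wells of about 80 µL received 100 nL stock; the first replicate is given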
PrP UTR inh: suppresses PrP 5' UTR mRNA reporter expression. cell-based PrP 5' UTR mRNA reporter, plate reader. inhibition, % (no concentration beside the values). 340,000 compounds, 0.35% hits. AID 488862;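 active = every replicate at 50% or more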;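 note: 0 = median of the neutral control wells; tested in H4 reporter cells; numbers are from one replicate; inactives centre near -14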
BJeLR viability: kills HRASV12-expressing BJeLR cells | BJeLR (HRASV12) viability, CellTiter-Glo ATP luminescence, 48 h; reference of the scale not given here | inhibition, % (test concentration not listed) | 300,000 compounds, 0.17% hits | AID 1554;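 active = replicate mean above 50%; inconclusive = above 50% but judged a plate artefact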;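 note: 50 nL library stock added to about 25 µL; numbers are from one replicate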
Sa RN4220 lethal: kills Staphylococcus aureus RN4220; S. aureus RN4220 growth, OD600, 16 h; inhibition, % (test concentration not listed); 330,000 compounds, 0.33% hits;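 active = z-score of -3 or lower and OD600 up to 0.18 on both plates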;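 note: plate controls were untreated cells for no effect and reference antibiotic for full effect; stock transfer was 100 nL into about 80 µL; one replicate is shown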
Mtb hypoxia rep growth: recorded beside Mtb hypoxia rep, whose call it bears; growth inhibition, %; measured here: M. tuberculosis growth (absorbance);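 0% = vehicle and 100% = reference antibiotic; read after six days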
* = called active by the depositor; ? = inconclusive; / = not tested or not shown; & = joins results of further samples.

Start of the data: the first 2 compounds, to show the layout:
SMILES	Autofluor counter	Mtb hypoxia rep	Mtb hypoxia rep growth	Sa ugtP lethal	PrP UTR inh	BJeLR viability	Sa RN4220 lethal
Cc1cc(N(C)C)ccc1N=Nc1ccc2ncccc2c1	3537	7	-5	20	-64	1	-4.2
COc1cc(NC(=S)NCCCN2CCOCC2)c(OC)cc1Cl	2473	12	7	4	-3	3	0.2

The whole of this part, from the start:
SMILES	Autofluor counter	Mtb hypoxia rep	Mtb hypoxia rep growth	Sa ugtP lethal	PrP UTR inh	BJeLR viability	Sa RN4220 lethal
Cc1cc(N(C)C)ccc1N=Nc1ccc2ncccc2c1	3537	7	-5	20	-64	1	-4.2
COc1cc(NC(=S)NCCCN2CCOCC2)c(OC)cc1Cl	2473	12	7	4	-3	3	0.2
O=S(NCc1ccccc1)C12CC3CC(CC(C3)C1)C2 (stereo unspecified)	9470	0	15	13	-21	-7	4.5
O=C(O)CC1S/C(=N/N=Cc2ccc(-c3ccccc3[N+](=O)[O-])o2)NC1=O (stereo unspecified)	/	14	11	3	/	/	3.3
Cc1cn(C2CCC(CO)O2)c(=O)[nH]c1=O (stereo unspecified)	3106	0	1	7	-7	1	1.8
O=P(O)(O)c1cc(-c2ccccc2)oc1-c1ccccc1	5201	2	10	14	-14	13	5.1
O=C(CN1C(=O)NC2(CCCCCC2)C1=O)NC1CC1	3146	1	-8	4	3	11	3.2
CCN(CC)c1ccc(C(=O)OCC(=O)N(C)Cc2ccccc2)cc1	4555	8	1	5	-25	0	-3.7
COc1ccc(CNC(=O)COc2ccc(OC)cc2)cc1	3653	-3	2	13	-19	7	5.3
COc1ccc(C2CC(c3ccccc3Cl)Nc3ncnn32)cc1OC (stereo unspecified)	4876	/	/	0	5	-1	0.0
COc1cc(/C=N/Nc2ccc([N+](=O)[O-])cn2)cc(OC)c1O	4016	/	/	/	10	-1	/
Cc1ccc(C(=O)NCC(C)NC(=O)c2ccc(C)c([N+](=O)[O-])c2)cc1[N+](=O)[O-] (stereo unspecified)	3780	-7	8	-9	-12	-4	4.6
Cc1nc2ccccc2c2c1C(=O)N(c1cccc(C(=O)O)c1)C2=O	3974	3	2	5	-12	-1	3.2
CCS(=O)(=O)N1CCC(C(=O)N2CCC3(CC2)OCCO3)CC1	10655	7	6	4	-11	-2	3.3
Cc1cc(Cl)c(S(=O)(=O)NC2CCCCC2)cc1OCC(=O)Nc1nncs1	2671	/	/	-6	-7	2	2.4
Cc1ccc(N2CC(C)Cn3c2nc2c3c(=O)[nH]c(=O)n2C)cc1 (stereo unspecified)	3095	9	-9	12	-20	21	0.6
Cc1ccc2nc3c(cc(C#N)c(=O)n3-c3nccs3)c(=O)n2c1	8260	9	3	3	-29	-7	4.8
CC1C(=O)N2CCCc3cc(NS(C)(=O)=O)cc1c32 (stereo unspecified)	7023	2	-2	1	-12	12	2.1
CC(C)COc1ccc(-c2nn(-c3ccccc3)cc2CO)cc1	3574	11	3	22	-18	4	0.3
COc1cccc(NC(=O)N2C3CCCC2CC(NC(C)=O)C3)c1 (stereo unspecified)	3692	13	7	7	2	-7	0.2
CC1(C)CC(NC(=O)COc2cc3oc(=O)c4c(c3cc2Cl)CCC4)CC(C)(C)N1	5787	-7	-1	2	2	3	-2.3
Cc1cc(Br)cc2cn[nH]c12	4316	14	-3	7	-10	-1	-0.2
N#CC1=C(N)Oc2n[nH]c(-c3cccs3)c2C1c1cccnc1 (stereo unspecified)	3994	3	14	0	-17	2	7.3
O=C1CSc2ccc(C(=O)O)cc2N1	4872	15	9	-7	-16	-5	7.1
CC(=NNc1nc2c(s1)CCCC2)c1ccc(Cl)cc1	/	-87	11	-17	/	/	0.3
CCNS(=O)(=O)c1ccc(CCC(=O)NCc2ccccc2)cc1	4568	-2	-7	15	-23	3	4.5
COc1cc(CN2C(=O)C(NC(=O)c3ccco3)(C(F)(F)F)C3=C2CC(C)(C)CC3=O)cc(OC)c1 (stereo unspecified)	6470	2	11	-2	-3	1	1.8
Cc1ccc(C[n+]2cccc(-c3ccccc3)c2)c(C)c1	2579	9	4	9	-18	7	5.9
O=C1NC(=O)N(c2cccc(F)c2)C(=O)/C1=C/c1ccc(N2CCOCC2)cc1	3532	0	-4	2	-26	-3	-0.4
COc1cc(O)oc1C=Nc1ccccc1	4560	4	-2	1	-16	-3	2.0
Cc1cc(C(=O)COC(=O)c2ccc(N)c([N+](=O)[O-])c2)c(C)n1Cc1ccc2c(c1)OCO2	4502	12	-4	3	-82	13	0.9
CCCn1c(NC(=O)c2cccc(C)c2C)nc2ccccc21	5943	5	23	-17	-14	4	12
COc1ccc(C(=O)Cn2nc(CNc3ccc(Br)cc3)[n+]3c2CCCCC3)cc1	4281	/	/	98*	-4	-6	99*
CCOC(=O)CC/C(=N\NC(N)=O)c1ccc(OC)c(Cl)c1	3082	/	/	/	-12	19	/
COC(=O)C1=C(C)N(Cc2ccc(OC)cc2)C(=O)/C1=C\c1ccco1	5802	1	2	9	-23	-11	1.8
Cc1ccc(CNC(=O)c2ccc(S(=O)(=O)N(C)C)cc2)n1C	4097	-12	12	4	-5	-3	3.9
CSCCC(NS(=O)(=O)c1ccc(Cl)cc1)C(=O)OCC(=O)N1CCCc2ccccc21 (stereo unspecified)	2269	18	10	-3	-8	-3	4.4
CCCCNC(=S)Nc1ccc2nc(N3CCN(CC)CC3)cc(C)c2c1	3842	0	-6	4	-9	-26	1.7
CCOc1ccc(C(F)(F)F)cc1NC(=O)COc1ccc(C(F)(F)F)cc1[N+](=O)[O-]	2402	/	/	13	-2	-13	7.3
CCN(CC)CCNC(=O)CCn1c(=S)[nH]c2cc3c(cc2c1=O)OCO3	5237	6	10	10	-10	2	1.3
COc1ccc(-n2c(SC)nc(O)cc2=O)cc1	9803	6	6	1	-31	-9	3.2
O=c1cc(CSc2nnc(COc3ccccc3)n2-c2ccccc2)c2ccccc2[nH]1	2566	-9	0	6	-19	-3	3.0
Cc1cc(OCC(=O)N2CCC(C(N)=O)CC2)c2c3c(c(=O)oc2c1)CCCC3	5243	/	/	-13	-19	0	3.0
Cc1sc2ncn(CC(=O)NCc3ccccc3)c(=O)c2c1C	4005	-20	-14	-9	-12	21	-2.7
COc1ccc(CNC(=O)c2cc(-c3cc(C)ccc3O)n[nH]2)cc1	4901	7	1	2	-17	14	0.8
Cc1sc2c(c1C)c(=O)nc1scc(CC(=O)O)n12	8641	0	7	2	-23	-3	1.9
COc1cc(C)c(S(=O)(=O)n2nnc3ccccc32)cc1C	10404	10	9	2	-1	2	1.2
CN(C)C(CNC(=O)CNC(=O)c1ccc(Br)cc1)c1ccccc1 (stereo unspecified)	4424	-8	1	3	-12	9	2.7
Cc1cccn2c(=O)c3cc(C#N)c(=NC(=O)c4ccccc4)n(Cc4ccco4)c3nc12	4478&6251	-1	-13	-9	-5&-20	-2	-4.8
CCOc1cc(C)nc(N2CCN(C3CCCCC3)CC2)n1	11173	-1	5	-1	-16	-5	-1.2
COc1ccccc1CN(C)C(=O)c1sccc1-c1ccccc1	5873	1	-12	3	-5	-7	5.5
COCCN(CCOC)S(=O)(=O)c1ccc(C(=O)Nc2sc3c(c2C(N)=O)CCCCC3)cc1	2667	4	-1	3	-45	10	6.3
O=C(CC1CC=CCC(Cc2ccc(F)cc2)C(=O)OCC2CCCN2C1=O)NC(CO)Cc1ccccc1 (stereo unspecified)	/	0&12&2&7&10&6	5&7&9&6&7&7	2&2&0&-8&-4&-25	/	/	4.7&7.6&2.1&5.5&8.1&1.4
O=C(/C=C/c1ccccc1Cl)Nc1ccc(-c2nnc3n2CCCCC3)cc1	9399	3	8	1	-14	-11	-0.8
Cn1c(CCCOc2ccc(Cl)cc2Cl)n[nH]c1=S	3942	5	6	0	-20	1	-6.9
COc1ccc(C(=O)NCCN2C(=O)S/C(=C\c3cccnc3)C2=O)c(OC)c1OC	2707	4	7	1	-25	-5	4.2
O=c1c2[nH]c3ccc(F)cc3c2ncn1CCN1CCN(Cc2ccccc2)CC1	6419	6	8	-8	-17	4	-7.1
Cc1ccsc1C=NNC(=O)CN1CCN(S(=O)(=O)c2ccc(Br)cc2)CC1	/	10	11	-3	/	/	3.1
Cc1cc(NC(=O)/C=C/c2ccc(F)cc2)n(-c2nc3ccccc3[nH]2)n1	2089	3	-7	-11	-53	2	-5.7
O=C(NNC(=S)NCc1ccc(Cl)cc1)c1ccc(Br)o1	3212	-2	2	2	-29	5	2.9
The list goes on.
SMILES	Autofluor counter	Mtb hypoxia rep	Mtb hypoxia rep growth	Sa ugtP lethal	PrP UTR inh	BJeLR viability	Sa RN4220 lethal
O=C(O)CC1S/C(=N\N=C/c2ccccc2)N(c2ccc(O)cc2)C1=O (stereo unspecified)	11020	/	/	/	-31	-9	/
CCOC(=O)C1=C(CCc2ccccc2)NC(=O)NC1c1ccc(C#N)cc1 (stereo unspecified)	3646	0	-3	3	-11	6	1.8
COc1cccc(OC)c1C(=O)N1CCN(Cc2ccccc2C)CC1	4353	/	/	5	-11	1	-0.7
O=C(c1ccc(-c2ccccc2Cl)o1)N1CCC1	6067	12	6	-3	-50	/	7.6
CCC(=O)Nc1ccc(NCc2cccs2)cc1	4464	7	6	5	-21	-5	-1.5
COc1ccc(CCCc2nnc(SCC(=O)Nc3cc(C)c(C)cc3Br)o2)cc1	21054*	9	16	5	-15	-2	-4.3
Cc1c([N+](=O)[O-])cc(C(=O)N2CCOCC2)cc1[N+](=O)[O-]	10480	0	6	3	-13	0	3.2
COc1ccc(-n2c(O)c(C=NC3CC3)c(=O)[nH]c2=O)cc1	2395	12	10	0	-1	2	4.5
CC(=O)Oc1ccccc1C1OC(=O)c2ccccc2N1C(C)=O (stereo unspecified)	4050	/	/	-2	-19	2	6.5
O=C(Nc1ccc(F)cc1F)NC1CCN(Cc2c(F)cccc2Cl)CC1	3571	2	-5	6	-24	4	0.3
CCC(C)[C@H](NC(=O)NCCCOC(C)C)C(=O)OC (stereo partly specified)	3494	5	10	4	-14	-9	4.6
c1ccc(CSC2=NCCS2)cc1	4853	8	9	4	-34	-7	8.1
O=C(CSc1nnc(CNC(=O)c2cccs2)o1)c1ccccc1	4815	/	/	3	-14	6	2.0
Nn1c(SCc2nc3ccccc3[nH]2)nnc1C1CCCCC1	5592	7	6	0	-17	2	2.3
Cc1cc(C)nc(NS(=O)(=O)c2ccc(NC(=O)CCCN3C(=O)c4ccccc4C3=O)cc2)n1	6411	7	5	12	-23	1	5.4
CN1CCN(NC(=S)Nc2ccc(OC(F)F)cc2)CC1	4339	-5	2	1	-20	-7	0.2
CCCCOC(=O)Cn1c(=N)n(CCN2CCOCC2)c2ccccc21	10122	5	0	9	2	-5	3.5
COc1ccc(CCN2CC(C(=O)Nc3ccc(S(C)(=O)=O)cc3)CC2=O)cc1OC (stereo unspecified)	4317	-7	-12	-2	-12	-3	-1.1
Nc1cccc2cc(S(=O)(=O)O)ccc12	3657	23	14	5	-14	/	3.2
CC1CCCCN1C(=S)Nc1ccc(OC(F)F)cc1 (stereo unspecified)	2062	10	0	12	-8	-4	9.0

6 compounds already listed, arranged by SMILES length, rising.
SMILES	Autofluor counter	Mtb hypoxia rep	Mtb hypoxia rep growth	Sa ugtP lethal	PrP UTR inh	BJeLR viability	Sa RN4220 lethal
O=C1CSc2ccc(C(=O)O)cc2N1	4872	15	9	-7	-16	-5	7.1
Cc1cc(N(C)C)ccc1N=Nc1ccc2ncccc2c1	3537	7	-5	20	-64	1	-4.2
Cc1sc2c(c1C)c(=O)nc1scc(CC(=O)O)n12	8641	0	7	2	-23	-3	1.9
COc1ccc(-n2c(O)c(C=NC3CC3)c(=O)[nH]c2=O)cc1	2395	12	10	0	-1	2	4.5
Cc1cccn2c(=O)c3cc(C#N)c(=NC(=O)c4ccccc4)n(Cc4ccco4)c3nc12	4478&6251	-1	-13	-9	-5&-20	-2	-4.8
Cc1ccc(C(=O)NCC(C)NC(=O)c2ccc(C)c([N+](=O)[O-])c2)cc1[N+](=O)[O-] (stereo unspecified)	3780	-7	8	-9	-12	-4	4.6

Following part
SMILES	Autofluor counter	Mtb hypoxia rep	Mtb hypoxia rep growth	Sa ugtP lethal	PrP UTR inh	BJeLR viability	Sa RN4220 lethal
CCOC(=O)c1cnc(-n2nc(C)cc2C)nc1Nc1ccc(C)cc1	?	/	/	/	-2	-2	/
COc1ccc(C=Nn2c(C3CCCCC3)n[nH]c2=S)c(OC)c1	/	-3	13	-2	/	/	4.1
CC(C)(C)NC(=S)NC1CC1	5166	2	0	1	-18	-16	-0.9
CC(C)(C)NC(=O)CN(C(=O)c1ccc(Cl)nc1)c1cccc2ccccc12	4932	0	-1	4	19	6	0.1

Assay outcomes: PubChem, several laboratories
